HPGD inh = blocks human HPGD enzyme activity; purified HPGD, NADH fluorescence kinetic, PGE2 substrate; Potency, µM, for the others: at the highest dose activity change, negative = inhibition, most hits filed as inhibitors; actives 4.3% (n = 150,000); AID 894; active = well fitted inhibition curve with a large enough effect (not every such curve was filed as active); inconclusive = small, poorly fitted or top-dose-only effect, or another doubt; inactive = no such curve, though single readings can be large or run the other way;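 further: top concentration of the series not given in the record; plate controls included wells without enzyme; inactives centre near -10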
Target sequence (P15428 whole entry, looked up): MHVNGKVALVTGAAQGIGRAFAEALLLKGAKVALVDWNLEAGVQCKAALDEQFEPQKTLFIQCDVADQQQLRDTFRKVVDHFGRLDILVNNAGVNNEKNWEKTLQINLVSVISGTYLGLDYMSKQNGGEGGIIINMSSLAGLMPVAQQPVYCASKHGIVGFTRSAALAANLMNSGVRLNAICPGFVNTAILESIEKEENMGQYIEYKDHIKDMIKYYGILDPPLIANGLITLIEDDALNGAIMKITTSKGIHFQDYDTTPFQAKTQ
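20 nM HPGD preincubated 15 min at room temperature with compound in 50 mM Tris-HCl pH 8, 0.01% Tween 20. Started with 1 mM NAD+ and 30 uM prostaglandin E2; NADH fluorescence (360/450 nm) read 5 times over 30-s intervals, last minus first.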
* = called active by the depositor; u = inconclusive; & = joins results of further samples. On the % scale 0 is the no-effect control and ±100 the full control effect; potency means the concentration at half of the fitted maximal effect.

The first 17 records, ahead of the listing:
HPGD inh,compound
-8%,Cc1cccc(NC(=O)CSc2nc3c(c(=O)[nH]2)CCC3)c1C
-15%,O=[N+]([O-])c1ccc(CSc2nnc(-c3cnccn3)o2)cc1
-1%,CC(=O)N1CCN(CCN=CC2=C(O)CC(c3cccs3)CC2=O)CC1 (centres undefined)
-15%,CCCC(c1c(C)n(C)n(-c2ccccc2)c1=O)c1c(C)n(C)n(-c2ccccc2)c1=O
-15%,CC(C)CC1C(C#N)=C(N)Oc2n[nH]c(-c3cccs3)c21 (centres undefined)
-3%,COc1ccc(CCNC(=O)CCc2ccc(S(=O)(=O)NCC(C)C)cc2)cc1
-22%,c1ccc(-c2nnc(-c3c[nH]c4ccccc34)nc2-c2ccccc2)cc1
-19%,CC(C)Oc1ccc(N2CC(C(=O)Nc3ccc(N4CCOCC4)cc3)CC2=O)cc1 (centres undefined)
-13%,COCCCn1c(C(C)C)nc2oc3cc(OC)ccc3c(=O)c2c1=O
-12%,COc1ccc(CN2CC(C(=O)NCC3CCCO3)CC2=O)cc1 (centres undefined)
1.4µM*,CC(C)c1ccc(S(=O)(=O)/N=C2/C=C(Sc3ncn[nH]3)C(=O)c3ccccc32)cc1
-12%,O=C(c1n[nH]c2ccccc12)N1CCN(S(=O)(=O)c2ccc3ccccc3c2)CC1
-16%,CCN(CC)Cc1c(O)ccc2occ(C(=O)c3ccc(OC)cc3)c12
-2%,CN1C(=O)CC(NNC(=O)c2ccccc2)C1=O (centres undefined)
10µM*,Cc1ccccc1CSCCNC(=O)CCSc1ccccc1
-4%,NC(=O)Nc1ccc(Oc2c(F)c(F)c(F)c(F)c2F)cc1
u,O=c1[nH]c2cc3c(cc2cc1C(c1nnnn1CC1CCCO1)N1CCCC1)OCO3 (centres undefined)

The whole of this part, previewed entries included:
HPGD inh,compound
-8%,Cc1cccc(NC(=O)CSc2nc3c(c(=O)[nH]2)CCC3)c1C
-15%,O=[N+]([O-])c1ccc(CSc2nnc(-c3cnccn3)o2)cc1
-1%,CC(=O)N1CCN(CCN=CC2=C(O)CC(c3cccs3)CC2=O)CC1 (centres undefined)
-15%,CCCC(c1c(C)n(C)n(-c2ccccc2)c1=O)c1c(C)n(C)n(-c2ccccc2)c1=O
-15%,CC(C)CC1C(C#N)=C(N)Oc2n[nH]c(-c3cccs3)c21 (centres undefined)
-3%,COc1ccc(CCNC(=O)CCc2ccc(S(=O)(=O)NCC(C)C)cc2)cc1
-22%,c1ccc(-c2nnc(-c3c[nH]c4ccccc34)nc2-c2ccccc2)cc1
-19%,CC(C)Oc1ccc(N2CC(C(=O)Nc3ccc(N4CCOCC4)cc3)CC2=O)cc1 (centres undefined)
-13%,COCCCn1c(C(C)C)nc2oc3cc(OC)ccc3c(=O)c2c1=O
-12%,COc1ccc(CN2CC(C(=O)NCC3CCCO3)CC2=O)cc1 (centres undefined)
1.4µM*,CC(C)c1ccc(S(=O)(=O)/N=C2/C=C(Sc3ncn[nH]3)C(=O)c3ccccc32)cc1
-12%,O=C(c1n[nH]c2ccccc12)N1CCN(S(=O)(=O)c2ccc3ccccc3c2)CC1
-16%,CCN(CC)Cc1c(O)ccc2occ(C(=O)c3ccc(OC)cc3)c12
-2%,CN1C(=O)CC(NNC(=O)c2ccccc2)C1=O (centres undefined)
10µM*,Cc1ccccc1CSCCNC(=O)CCSc1ccccc1
-4%,NC(=O)Nc1ccc(Oc2c(F)c(F)c(F)c(F)c2F)cc1
u,O=c1[nH]c2cc3c(cc2cc1C(c1nnnn1CC1CCCO1)N1CCCC1)OCO3 (centres undefined)
-18%,CCSc1nc2ccc(N3C(=O)C4C5C=CC(C5)C4C3=O)cc2s1 (centres undefined)
0%,O=C(CN1C(=O)NC2(CCCCCCC2)C1=O)NC(=O)NCc1ccco1
-12%,O=C(c1ccncc1)c1ccc(N2CCN(C3CC(=O)N(Cc4ccccc4)C3=O)CC2)cc1 (centres undefined)
-6%,O=C(CCCCn1c(=O)c2ccccc2n(CC(=O)Nc2ccccc2)c1=O)NCc1ccco1
-13%,FC(F)(F)c1nnc2sc(-c3cccs3)nn12
13%,CCn1nc(NC(=O)c2ccncc2)c2cc3cc(C)ccc3nc21
-4%&-5%,Cc1nc2n(c(=O)c1CCN1CCC(c3noc4cc(F)ccc34)CC1)CCCC2
16µM*,CCOC(=O)COc1ccc(C(=O)c2ccccc2)c(O)c1
-29%,COC(CN1C(=O)C(O)=C(C(C)=O)C1c1ccccn1)OC (centres undefined)
-20%,CCCC(=O)Nc1ccc(C(=O)Nc2cccc(OC)c2)cc1
u,COc1ccc(OCC(=O)N/N=C(\C)c2cc3ccccc3o2)cc1
u,O=C(CSc1nc2sc3c(c2c(=O)[nH]1)CCCC3)NCCO
-1%,Cc1nn(-c2ccccc2)c(C)c1/C=N/N1CCN(Cc2ccccc2)CC1
-15%,COc1ccccc1NC(=S)N(Cc1ccco1)Cc1cc2ccc(C)c(C)c2[nH]c1=O
-8%,CC1(C(=O)NC2CCCCCCC2)CCC(=O)N1Cc1ccco1 (centres undefined)
-3%,Cc1ccc2c(c1)C(=O)[C@]1(O)CCN(c3ccccc3)C1=N2
-6%,CCc1ccccc1NC1=NCC(=O)N1Cc1ccc2c(c1)OCO2
20µM*,O=C(C1CCN(S(=O)(=O)c2cccnc2)CC1)N1CCCCC1
-5%,O=C1c2cccc([N+](=O)[O-])c2C(=O)N1c1ncn[nH]1
-28%,COc1cccc([C@@H]2Oc3ccc(OC)cc3C(=O)[C@H]2OC(=O)N[C@H]2CCCc3ccccc32)c1
-20%,CCOC(=O)c1cc(CC)sc1/N=C/C1=C(O)CC(C)(C)CC1=O
u,N#Cc1c(C(F)(F)F)cc(C2CC2)nc1N1CCCC1
-24%,CCNC(=S)N/N=C1\CCCCc2ccccc21
-7%&-3%,COC(=O)C1=C(C)NC(C)=C([N+](=O)[O-])[C@@H]1c1ccccc1C(F)(F)F
u,Cn1nc(-c2ccc(Cl)cc2)c2cc(C(=O)NCC3CCCO3)sc21 (centres undefined)
-5%&-7%,Cc1ccc(S(=O)(=O)NC(=O)c2ccc(Br)o2)c(C)c1
-4%,CCCCNC(=O)c1onc(CSc2cc(C)cc(C)c2)c1C(=O)O
u,CCCN1CCC(NC(=O)Nc2ccccc2C(=O)OC)CC1
-15%,C#CCN(C(=O)Nc1ccccc1)c1ccccc1
-6%,Nc1ncc(Br)cc1Br
-6%,O=C(COc1ccccc1)Nc1ncccn1
-3%,O=[N+]([O-])c1ccc(Nc2ccc3ccccc3c2)nc1
-5%,CCc1cccc(Nc2cc(C)nc3ncnn23)c1
-9%&-4%&-2%,O=C(O)CCC(=O)Nc1ccc(S(=O)(=O)Nc2nccs2)cc1
-5%,NC(=O)CN(c1ccccc1)C1SC(=O)N(Cc2ccccc2)C1=O (centres undefined)
-4%,Cc1csc(=N)n1CC(=O)N1CCc2ccccc21
-25%,CCc1nn(-c2ccccc2)c(N)c1C#N
-5%,CC(=O)Oc1cc2c(C(=O)NCCCN3CCOCC3)c(C)oc2c2ccccc12
1%,N#Cc1cn(CC(=O)N2CCc3ccccc3C2)c2ccccc12
-18%,CC1(c2ccc(Cl)cc2)NC(=O)N(CC(=O)NCc2cccs2)C1=O (centres undefined)
-22%,CCn1cc(C(=O)NCc2ccco2)c(=O)c2cc(S(=O)(=O)N3CC(C)CC(C)C3)ccc21 (centres undefined)
-11%,CCCC1CCc2c(c3ccccc3[nH]c2=O)O1 (centres undefined)
-5%,O=C(NC(C(=O)c1ccccc1)N1CCCCCC1)c1ccco1 (centres undefined)

The results go on:
HPGD inh,compound
0%,COC(=O)[C@@H]1C[C@@]2(O)[C@@H](O)[C@@H](O)[C@@H](O)C[C@H]2N1Cc1cc(F)ccc1F
-7%,Cn1nnnc1SCC(=O)NCc1cccs1
u,O=C(NCCC(c1ccccc1)c1ccccc1)c1cnccn1
-10%,COC(=O)C1(C)CCc2cc(OC)ccc2C1=O (centres undefined)
-2%,O=C(NCCc1c[nH]c2ccccc12)C1Cc2ccccc2CN1C(=O)c1ccco1 (centres undefined)
-9%,CCC(C)(C)NC(=O)CN(C(=O)CNS(=O)(=O)c1ccc(C)cc1)c1ccc2c(c1)OCCO2
-13%,C=CCn1c(O)c(CN2CCN(Cc3ccccc3)CC2)c(C)c(C#N)c1=O
-15%,CCC1CCC(C(=O)NNC(=O)OC)CC1 (centres undefined)
-9%,N#C/C(=C\c1cn(CC(=O)N2CCCCC2)c2ccccc12)C(=O)NCc1ccc2c(c1)OCO2
4%,Cn1c(=O)c2c(nc(N3CCN(Cc4ccccc4)CC3)n2CCSc2ncccn2)n(C)c1=O
-14%,CN(C)CCCNc1c2c(c(C#N)c3nc4ccccc4n13)CCC2
u,O=C(OCc1ccccc1)/C(=C/c1ccc(Cl)cc1)NC(=O)c1ccccc1Cl
14µM*,Cc1c(Cl)cccc1NC(=O)Nc1ccc(C(=O)N2CCCC2)cc1
-15%,Cc1oc(-c2ccc(Cl)cc2)nc1CS(=O)CC(=O)NCc1cccs1 (centres undefined)
-23%,c1ccc2c(c1)nnn1c3ccccc3nc21
u,Cc1cc(=O)[nH]c(SCC(=O)Nc2nc(-c3ccccc3)c(-c3ccccc3)o2)n1
-13%,COc1ccc(Cl)cc1N=Nc1ncc[nH]1
-26%,O=C(NC1CCCC1)c1ccc2nc[nH]c2c1
-7%,Cc1c(C(C)NC(=O)Nc2ccc(F)cc2F)cnn1C (centres undefined)
-18%,CC(=O)Nc1ccc(Oc2sc(C(=O)c3ccccc3)c(N)c2C#N)cc1
-14%,CCn1c2ccccc2c2nnc(SCC(N)=O)nc21
-5%,CCC1=C2CC[C@H]3C(=O)N(C)C(=O)[C@H]3[C@H]2[C@@]2(Cc3ccccc3)C(=NCC3CC3)OC(=O)N2C1=O
-3%,CC1Cc2ccccc2N1C(=O)CSc1nnc(NC(=O)Cc2cccs2)s1 (centres undefined)
-2%,COc1cccc(C(c2nnnn2C(C)(C)C)N2CCN(C3CCCCC3)CC2)c1OC (centres undefined)
u,COc1ccccc1CNc1nc(-c2ccc(N(C)C)cc2)nc2ccccc12
-17%&-4%&-11%,CCCCOC(=O)c1ccc(O)cc1
-4%,COC(=O)c1ccc(OC(=O)CCN2C(=O)C3CCCCC3C2=O)cc1 (centres undefined)
-10%,COc1cc(NC(=O)c2ccc(NS(=O)(=O)c3c(C)noc3C)cc2)cc(OC)c1
u,COc1ccc(OC)c(-n2c(-c3ccccc3)n[nH]c2=S)c1
-11%,COc1ccc(F)cc1S(=O)(=O)NC1CCCC1
0%,CC(C)(O)c1cn(-c2nonc2N)nn1
-16%,Cc1ccc(Cn2nnc3c(=O)n(CC(=O)N4CCCc5ccccc54)cnc32)cc1
-3%,CCOc1cc(CNCc2cccs2)cc(Br)c1OC
-16%,Fc1cccc(Nc2ncnc3sc4c(c23)CCC4)c1
-17%,CC(C)Sc1nc2sc3c(c2c2nnc(SCC(=O)NCc4ccco4)n12)CCCC3
-13%,COc1ccc(C(=O)NCC(=O)OCC(=O)c2ccc3c(c2)OCCO3)cc1
-3%,O=C(COC(=O)c1ccccc1)Nc1ccccc1Sc1ccccc1
u,CCOC(=O)Cc1cc(-c2ccccc2)nc2ccc3ccccc3c12
-8%,O=C1c2ccccc2[C@@H]([C@@H]2c3ccccc3C(=O)c3cc(Br)ccc32)c2ccc(Br)cc21
-10%,CN(C)S(=O)(=O)c1ccc2c(c1)C(CC(=O)O)OC2=O (centres undefined)
4%,COc1ccc(CN2CCN(S(=O)(=O)c3ccc(F)cc3)CC2)c(OC)c1OC
-7%,COc1ccc(C(c2sc3nc(C)nn3c2O)N2CCC(O)CC2)cc1OC (centres undefined)
-27%,CC(C)C1Nc2ccc(S(N)(=O)=O)cc2C2C=CCC21 (centres undefined)
-9%,O=C(COC(=O)C1CCN(S(=O)(=O)c2ccc3c(c2)OCCO3)CC1)Nc1cccc2ccccc12
-8%,CN(C)C(=O)/C(=C\c1cccc(Oc2ccccc2)c1)NC(=O)c1ccccc1
-9%,CCCCCC(=O)NC(=S)Nc1ccc(N2CCOCC2)cc1
-7%,Cn1nc(C(F)(F)F)c(C(=O)Nc2ccc(Cl)cc2)c1Cl
-21%,COc1cc(NC(=O)CN2C(=O)NC(C)(c3ccc4ccccc4c3)C2=O)c(C)cc1[N+](=O)[O-] (centres undefined)
-9%,CCCc1nc(NCc2ccccn2)c2nnn(Cc3ccccc3F)c2n1
-5%,CCOc1ccc(OCC)c(S(=O)(=O)NCCOC23CC4CC(CC(C4)C2)C3)c1
-3%,CS(=O)(=O)N(CC(=O)N1CCN(c2ccccc2F)CC1)c1ccc2c(c1)OCCO2
-5%,CC1OC2(OC1C)C(=O)Nc1ccccc12 (centres undefined)
-13%,CCCNc1c(F)c(F)c2c(C)c3ccccc3nc2c1F
-19%,COCCSc1nnc(NC(=O)CSc2ccccc2)s1
-15%,C[C@@H](NCCc1ccc(O)cc1)[C@@H](O)c1ccc(O)cc1
-7%,CC(=O)N/C(=N/c1nc(C)cc(C)n1)Nc1ccc(NC(C)=O)cc1
1%,COc1ccccc1C(c1nnnn1C(C)(C)C)N1CCN(Cc2ccccc2)CC1 (centres undefined)
-6%,CCCCCCCC(=O)O[C@H](CC(=O)O)C[N+](C)(C)C
-23%,CCOC(=O)C1CCN(C(c2cc3ccc(C)c(C)c3[nH]c2=O)c2nnnn2C2CCCCC2)CC1 (centres undefined)
-5%,CC(SCc1cn2cc(Cl)ccc2n1)C(=O)O (centres undefined)

Remaining list, next part:
HPGD inh,compound
-1%,Cc1c(NC(=O)c2noc(C(C)C)c2[N+](=O)[O-])c(=O)n(-c2ccccc2)n1C
-18%,C=CCOc1c(Br)cc(CNc2ccc(NC(=O)C(C)C)c(OC)c2)cc1OCC
0%,COc1ccc(NC(=O)CC2C(=O)N(c3cccc(C)c3)C(=O)N2C2CCCCC2)cc1 (centres undefined)
-7%,CCOc1ccc(OCC)c(S(=O)(=O)N2CCCCC2)c1
-10%,Oc1cccc(NC(=S)Nc2cccnc2)c1
-9%,COc1ccc(C2=NOC3(CC(=O)N(c4ccc(C)cc4)C3=O)C2)cc1 (centres undefined)
-5%,COc1ccccc1CN1CCCC2(CCN(C(=O)c3cnccn3)CC2)C1

This is a subset; rates above refer to the full screens.
